TRPML1 ag – human mucolipin-1 channel agonism | 0.12% of 410,000 active | activation, % (test concentration not listed) | TRPML1-expressing cells, Ca2+ dye fluorescence, FDSS; host cell line not named in the record; reference of the full effect not given here | Q9GZU1; in the data active = activation above about 50%; inconclusive = about 30% to 50%; inactive = below about 30%; note: 0% is about no effect; the text of the record puts the active cut at 80%
Target sequence (Q9GZU1 whole entry, looked up): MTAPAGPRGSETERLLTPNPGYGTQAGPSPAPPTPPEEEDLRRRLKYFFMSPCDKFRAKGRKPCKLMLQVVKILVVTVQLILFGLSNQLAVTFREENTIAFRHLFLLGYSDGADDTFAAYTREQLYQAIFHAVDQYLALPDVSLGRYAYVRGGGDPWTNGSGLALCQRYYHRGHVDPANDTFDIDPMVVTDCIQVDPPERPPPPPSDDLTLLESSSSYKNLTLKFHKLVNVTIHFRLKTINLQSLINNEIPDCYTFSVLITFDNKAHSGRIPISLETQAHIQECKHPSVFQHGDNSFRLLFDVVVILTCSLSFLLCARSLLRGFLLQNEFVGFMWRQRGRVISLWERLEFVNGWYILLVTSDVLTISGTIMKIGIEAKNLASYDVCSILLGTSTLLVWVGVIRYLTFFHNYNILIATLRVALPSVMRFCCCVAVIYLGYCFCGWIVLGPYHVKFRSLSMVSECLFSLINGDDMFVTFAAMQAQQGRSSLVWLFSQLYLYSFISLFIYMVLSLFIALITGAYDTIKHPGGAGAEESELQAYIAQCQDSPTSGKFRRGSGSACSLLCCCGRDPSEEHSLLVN
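In this qHTS format, compounds were pin-transferred onto Ca8-dye-loaded TRPML1-DL cells induced with Tet overnight, and intracellular Ca2+ fluorescence was recorded kinetically for 110 s after a 10 s baseline. A subsequent 4uM final 54-4 (EC80) addition followed by a second 110 s read served as the antagonist phase.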
gsp agonist – gsp mutant agonism | gsp mutant cells, cAMP HTRF, 30 min; control for the full effect not named in the record | Potency, µM (series often up to 76.9 µM), for the others: top-dose activation (cAMP increase), usual class: activators | 0.13% of 340,000 active | AID 624287; active = well fitted activation curve with a large enough effect; inconclusive = small, poorly fitted or top-dose-only effect, or another doubt; inactive = no such curve, though single readings can be large or run the other way; cell line not stated here;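 note: phosphodiesterase inhibitor Ro 20-1724 added with compounds to block cAMP breakdown; potency is the fitted concentration of half-maximal effect; nearly all actives have a fitted effect of over 60% in size; about a fifth of the inactives were tested at one dose only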
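Cells in DMEM/10% FBS with G418 were pretreated with compounds in DMSO plus […] (300 uM stock) for 30 min at 37C. cAMP was measured by HTRF (cAMP-d2 plus anti-cAMP antibody-K) after 30 min at room temperature.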
TRPML1 blocker – inhibitors of human TRPML1 channel; TRPML1-inducible cells, Ca2+ dye fluorescence, FDSS; stronger effect = lower value; inhibition of EC80 agonist-evoked calcium signal; activity change, negative = inhibition, % (no concentration beside the values); 0.02% of 390,000 active; in the data active means activity change below about -50%; inconclusive means about -30% to -50%; inactive means above about -30%;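 note: stimulus is agonist 54-4 at its EC80 concentration; % is set by controls: 0 for no effect and ±100 for the full control effect; compound concentration not given in the record; the text of the record puts the active cut at -80%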
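Tet-induced TRPML1-DL cells loaded with Ca8 no-wash calcium dye were read kinetically on FDSS. Compound addition was followed by EC80 agonist 54-4 (4 uM final); inhibition was read over 110 s.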
ClpP mod – qHTS Assay for Activators of ClpP | purified B. subtilis ClpP, FRET peptide cleavage, 20 min | Potency, µM (highest dose often 57.5 µM), for the others: at the highest dose activity change, negative = active | 1.9% of 340,000 active; active = well fitted falling curve with a large enough effect; inconclusive = small, poorly fitted or top-dose-only effect; inactive = no such curve, though single readings can be large or run the other way; note: potency is the fitted concentration of half-maximal effect; the source files actives as falling curves though it sought activators and does not explain the sign; nearly all actives have a fitted effect of over 65% in size; many hits overshoot -100%
Target sequence (P80244 whole entry, looked up): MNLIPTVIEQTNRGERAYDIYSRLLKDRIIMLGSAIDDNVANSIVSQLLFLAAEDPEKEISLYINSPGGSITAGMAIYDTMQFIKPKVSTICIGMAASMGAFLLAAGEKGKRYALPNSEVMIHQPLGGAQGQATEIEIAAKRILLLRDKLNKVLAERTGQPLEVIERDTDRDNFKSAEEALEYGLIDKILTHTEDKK
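FRET quenching reversal measured ClpP activation: 10 microg/mL B. subtilis ClpP at pH 8 with the FRET-FV decapeptide, read at 430 nm after 320 nm excitation. The 20-min minus 0-min signal was scaled between DMSO/no-enzyme wells and ADEP (5.8 microM final).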
Menin MLL FP FL – displaces fluorescein MLL peptide from human menin. Fluorescence polarization, fluorescein-MLL peptide displacement from menin. FP activity change, % at 61.4 µM. 290,000 tested, under 10 active; inconclusive = falling polarisation curve, or a change in total fluorescence; inactive = total fluorescence flat and polarisation flat or rising; no compound was filed as active; the % refers to the polarisation; negative = inhibition;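 note: % of control where 0% means no effect; inhibitors lower the polarisation; unlabelled MLL peptide was the positive control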
gsp antagonist – antagonists of gsp mutant (McCune-Albright syndrome). gsp-mutant cells, cAMP HTRF, 30 min; control for the full effect not named in the record. Potency, µM (doses to about 76.9 µM), for inactives: top-dose activity change, negative = inhibition, hits mostly inhibitors. 0.4% of 340,000 active; active = falling curve of any shape with a large fitted effect; inconclusive = falling curve, mostly with a smaller effect; inactive = flat or rising curve; cell line not stated here;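 note: intracellular cAMP measured with PDE inhibitor Ro 20-1724 present during compound exposure; potency is the fitted concentration of half-maximal effect; % is set by controls: 0 for no effect and ±100 for the full control effect; nearly all actives have a fitted effect of over 65% in size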
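G418-selected cells were plated in DMEM/10% FBS for 16-24 h at 37C, then treated with compounds plus the PDE inhibitor […] (300 uM solution added) for 30 min at 37C. Intracellular cAMP was measured by HTRF after 30 min lysis at room temperature.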
An asterisk follows results filed as active; ? = inconclusive; . = not tested or not shown; & = joins results of further samples; [ ] = another dose, or the depositor's remark.

SMILES | TRPML1 ag | gsp agonist | TRPML1 blocker | ClpP mod | Menin MLL FP FL | gsp antagonist
COc1ccc(C2CC(=O)Nc3c2c(C)nn3-c2nncc(-c3ccccc3)n2)c(OC)c1OC (stereo unspecified) | 2.2 | . | 6 | -3.4% | . | .
CO/N=C(/CS(=O)(=O)Cc1ccccc1Cl)c1ccc(Cl)cc1Cl | 2.0 | -49%[inhibitor] | 15 | 0.0% | -2.3 | -27%
O=C(C1=C(O)C(=O)N(c2ncccn2)C1c1ccc(Cl)c(Cl)c1)c1ccco1 (stereo unspecified) | -0.2 | ? | 1 | -3.9% | ? | 3%
CCCCCn1c(=O)[nH]c2cc(C(=O)N3CCN(c4cccc(C(F)(F)F)c4)CC3)ccc2c1=O | 0.3 | . | -2 | -1.0% | . | .
CCc1noc(C)c1C(=O)Nc1nc2ccc(OC)cc2s1 | 0.4 | -12%[15.4 µM] | 25 | . | . | -16%
COCCNC(=O)CSc1c(C)cnc2c1c(=O)n(C)c(=O)n2C | -0.6 | . | 52 | 0.4% | . | .
Cc1cnc(C(=O)OCC(=O)N=c2sccn2Cc2ccccc2Cl)cn1 | -0.1 | ? | -9 | 2.1% | 2.6 | 6%
Cc1ccc(C(=O)OCc2nc(N)nc(Nc3ccccc3C)n2)cc1 | 0.6 | -4% | 2 | -1.8% | 9.9 | 2%
CCCCn1c(N)c(N(CCC(C)C)C(=O)C2CC(=O)N(CCc3ccc(OC)c(OC)c3)C2)c(=O)[nH]c1=O (stereo unspecified) | 2.2 | 11%[15.4 µM] | 7 | . | . | 12%
COc1ccc(N2CCN(C(=O)CN3CCN(c4nc(-c5ccc(F)cc5)cs4)CC3)CC2)cc1 | -0.2 | 11%[15.4 µM] | -5 | . | -1.4 | ?
Cc1cc(=O)oc2c3c(cc(OCC(=O)NC4CC4)c12)OC(C)(C)CC3 | . | . | . | 4.8% | -2.6 | 0%
COCCN=C1NN=C(c2ccc(C)c([N+](=O)[O-])c2)CS1 | 6.0 | ? | 12 | -2.0% | -1.3 | 3%
CC1CCC(NC(=O)CC(C)(C)Cc2nc3ccccc3c(=O)[nH]2)CC1 (stereo unspecified) | -0.5 | 9% | 11 | -2.4% | 5.4 | -17%
CCc1noc(C)c1C(=O)Nc1ccc(C#N)cc1 | 0.3 | -6%[15.4 µM] | 8 | -3.4% | . | 5%
CCN(CC)CCN(C)Cc1nc(C(c2ccccc2)c2ccccc2)no1 | 0.0 | 24% | -6 | -3.6% | 5.7 | 0%
CC(C)CC1C(=O)N(Cc2cn(CCC3OCCO3)nn2)CCS(=O)(=O)N1Cc1ccc(-c2cccc(CO)c2)cc1 (stereo unspecified) | 0.2 | -37%[inhibitor] | -3 | -2.3% | . | .
CCNc1ccc(C(=O)O)cc1N | -0.4 | -8% | -13 | 25µM* | -1.5 | -19%
CC(C)(C)c1ccc(-c2nc(C#N)c(N3CCC(C(N)=O)CC3)o2)cc1 | -0.5 | -6%[15.4 µM] | 13 | -3.2% | -7.4 | -18%
COc1ccc(C(=O)c2coc3ccc(O)cc23)cc1 | 1.5 | 26% | 23 | -0.6% | 4.1&5.5 | -2%
CCOC(=O)Cc1csc(NC(=O)c2cccc(Cl)c2)n1 | -0.8 | 3%[15.4 µM] | 1 | 1.0% | . | -2%
O=C(NCCC1=CCCCC1)C1CCN(Cc2cnn(-c3ccccc3)c2-n2cccc2)CC1 | 1.1 | ? | 12 | 0.6% | 2.9 | 1%
O=C(NCCCl)Nc1ncn[nH]1 | 0.3 | 21% | 11 | 1.7% | . | 5%
O=S1(=O)CC(N2CCN(CC3CC3)CC2)CN1C1CCCC1 (stereo unspecified) | 0.6 | . | -2 | -1.1% | . | .
CCCCNC(=O)NS(=O)(=O)c1ccc(NS(=O)(=O)c2ccccc2)cc1 | -0.9 | ? | -5 | 1.6% | 6.0 | 0%
O=C(NCc1cccnc1)c1ccc(S(=O)(=O)N2CCCCCC2)cc1 | -0.2 | 26%[15.4 µM] | 33 | . | 0.4 | -6%
Cn1cc(P(=O)(N2CCOCC2)N2CCOCC2)cc1P(=S)(N1CCOCC1)N1CCOCC1 | 0.0 | 1% | 5 | . | -0.4 | 11%
CN(C)c1ccc(C(=O)c2ccccc2C(=O)O)c(O)c1 | 5.6 | ? | 15 | 0.4% | -3.1 | -19%
O=C(CN1CCc2cc3c(cc2C1)OCCCO3)Nc1cccc(Br)c1 | -0.4 | 27% | 4 | -3.6% | . | -22%
Cc1ccsc1/C=C/C(=O)O | 1.2 | 17%[15.4 µM] | 8 | 0.2% | -1.3 | -9%
Cc1ccc(C)c(N2CCN(c3nc4ccccc4n4nnnc34)CC2)c1 | -0.1 | . | 5 | -6.6% | . | .
COc1ccc(OC)c(NC(=O)N2CCCC(C(=O)c3ccccc3OC)C2)c1 (stereo unspecified) | 0.3 | 4% | 18 | -4.8% | 0.4 | -10%
CCCC1(C(=O)OCC)NC(c2ccc(N(C)C)cc2)C2C(=O)N(c3ccc4c(c3)OCCO4)C(=O)C21 (stereo unspecified) | -0.5 | -23% | -6 | -5.1% | -0.1 | -8%
O=C(COC(=O)Cc1n[nH]c(=O)c2ccccc12)NNC(=O)c1ccc(Br)cc1 | -0.7 | ? | 1 | 2.0% | . | 5%
Cc1ccc(NC(=O)/C(C#N)=C/c2ccc(C)o2)cc1 | 0.1 | . | 7 | 3.8% | . | .
COc1ccccc1CNC(=O)CCCC(=O)n1ncc2cc(C)ccc21 | -0.8 | 17% | 7 | 2.3% | -0.8 | 12%
O=C(CSc1nc2ccccc2o1)Nc1ccc(N2CCOCC2)cc1 | 0.5 | 21% | 1 | -3.3% | 4.2 | ?
COc1ccc(CN2C(=O)C(C)Oc3ccccc32)cc1 (stereo unspecified) | 1.3 | -3% | -9 | -0.2% | -0.1 | 2%
Cc1ccc(NC(=O)c2cnccn2)nc1 | 1.0 | -11% | 22 | 1.5% | . | 3%
CCOc1cc(CNc2ccc(S(N)(=O)=O)cc2)ccc1OCC(=O)NC(C)(C)C | 2.1 | 20%[15.4 µM] | 23 | . | 1.2 | 4%
CCN(CC)Cc1c(O)ccc2c(=O)c(-c3ccccc3)coc12 | -0.4 | 3% | 14 | 4.3% | 2.1 | -6%

2 of the compounds above, with two lines to a compound:
Results follow in this order: TRPML1 ag, gsp agonist, TRPML1 blocker, ClpP mod, Menin MLL FP FL, gsp antagonist
- CCCC1(C(=O)OCC)NC(c2ccc(N(C)C)cc2)C2C(=O)N(c3ccc4c(c3)OCCO4)C(=O)C21 (stereo unspecified)
→ -0.5, -23%, -6, -5.1%, -0.1, -8%
- O=C(COC(=O)Cc1n[nH]c(=O)c2ccccc12)NNC(=O)c1ccc(Br)cc1
→ -0.7, ?, 1, 2.0%, ., 5%

(continued)
SMILES | TRPML1 ag | gsp agonist | TRPML1 blocker | ClpP mod | Menin MLL FP FL | gsp antagonist
COc1ccc(CNC(=O)CN2C(=O)NC(c3ccccc3)(c3ccccc3)C2=O)cc1 | 2.4 | -44%[inhibitor] | -7 | -0.8% | . | -2%
C=CCNC(=O)c1scc2c1CCCC2 | -0.6 | 20% | 19 | 0.5% | -2.9 | -7%
CCn1c(=O)n(CC(=O)Nc2ccc(F)cc2)c(=O)c2ccccc21 | 0.3 | 34% | -14 | . | 1.0 | -4%
COc1cccc(C2=NOC(C(=O)Nc3cc(C)on3)C2)c1 (stereo unspecified) | 1.0 | 4%[15.4 µM] | 10 | . | 5.3 | -22%
Cc1cc2n(c(=O)c1C#N)CCCN2c1ccccc1 | -0.6 | 2% | 10 | ? | 0.7 | 6%
Cc1cccc(N2CCN(C(=O)Cc3c(C(=O)O)c(C)cn3C)CC2C)c1 (stereo unspecified) | 0.4 | . | 8 | -4.8% | . | .
COc1ccccc1Oc1ccc(-c2cnc3ccccc3n2)cc1[N+](=O)[O-] | 0.3 | 2%[15.4 µM] | 13 | . | -4.5 | ?
COc1ccc(N2CCN(C(c3nnnn3C3CCCC3)C(C)C)CC2)cc1 (stereo unspecified) | 1.0 | 4%[15.4 µM] | -3 | . | -1.9 | -5%
CN(c1ccccc1)S(=O)(=O)c1cccc(C(=O)OCC(=O)NCc2ccc3c(c2)OCO3)c1 | 2.1 | 13% | -1 | -2.7% | 9.1 | 11%
C[N+]1(CCC(=O)c2ccccc2)CCCCC1 | 0.2 | -47%[inhibitor] | 5 | -0.6% | 0.9 | 1%
COc1ccc(-c2ccc3c(c2)S(=O)(=O)c2cccc(C(=O)NCc4ccccc4Cl)c2C3=O)cc1OC | -0.4 | ? | -1 | -0.1% | . | 1%
COc1ccc(C(=O)NC(C)c2nnc(SCc3ccc(Cl)c(Cl)c3)n2C)cc1 (stereo unspecified) | -0.8 | 0% | 8 | -1.1% | -1.9 | 6%
CC(C)CC(c1nnnn1Cc1ccccc1)N1CCC(C(N)=O)CC1 (stereo unspecified) | 0.1 | -9% | -5 | -1.4% | 1.9 | -7%
Cc1ccc(CNC(=O)C2(C)Oc3ccccc3NC2=O)cc1 (stereo unspecified) | 1.6 | 11% | 11 | -3.2% | -0.3 | 6%
COc1ccc(NC(=S)N/N=C/c2cccn2Cc2ccc(F)cc2)cc1 | 1.9 | 22% | -8 | -2.1% | 1.7 | -4%
COc1cc(C)c(CN2CCC(Oc3ccc(C(=O)N4CCCC4)cc3)CC2)cc1C | 0.2 | 5% | 3 | 1.3% | -2.4 | 10%
CN(C)CCCOc1ccc(-c2cc3nc(NCc4cccnc4)n(C)c(=O)c3s2)cn1 | 1.4 | . | 71 | ? | . | .
COc1cc(Oc2nc(C(F)(F)F)nc3ccccc23)ccc1C=O | 1.8 | -9% | 9 | 0.0% | -0.4 | 8%
Cc1noc(NS(=O)(=O)c2ccc(NC(=O)c3ccc(Cl)c(S(=O)(=O)N(C)c4ccccc4)c3)cc2)c1C | 0.3 | 17%[15.4 µM] | -11 | 1.2% | . | -12%
CCOc1ccc(NS(=O)(=O)c2ccc3c(c2)N(C(C)=O)CCS3)cc1 | 0.4 | ? | -1 | 0.5% | . | -11%
C=CCNC(=O)c1onc(CSc2cccc(Cl)c2)c1C(=O)O | -0.8 | . | 8 | 2.3% | 1.7 | 0%
CC(C)[C@H](N)C(=O)N1CCC(C(=O)N[C@@H](Cc2ccccc2)C(=O)NCc2ccc(F)cc2)CC1 | 4.6 | -1% | 23 | -1.2% | -27 | 4%
COc1ccc(Cc2nnc(NC(=O)c3ccc(OC(C)=O)cc3)s2)cc1OC | 0.2 | 9% | 13 | . | -1.6 | 12%
CCc1cccc(C)c1NC(=O)CCCSc1nc2ccccc2s1 | 1.4 | 12% | -15 | 1.3% | 2.8 | -10%
O=C(Cc1ccccc1)NC(NCCCN1CCOCC1)(C(F)(F)F)C(F)(F)F | -0.3 | ? | 12 | -0.7% | -5.2 | 0%
Cn1c2ccccc2c2n[nH]c(=S)nc21 | -0.3 | 22%[15.4 µM] | -17 | 0.5% | -3.2 | -3%
O=C(C1CCCCC1)N1CCC(c2nc3ccccc3[nH]2)CC1 | 0.0 | 8% | -5 | -2.4% | 1.3 | 6%

From PubChem BioAssay

The order is random, and some 2.1% of all compounds hit somewhere here.
